# GLA inh pH 4.5: inhibitors of human alpha-galactosidase A at pH 4.5; activity change, negative = inhibition, % at 105 µM; P06280; 230,000 tested, under 10 active; purified enzyme, 4-MU-alpha-Gal fluorescence, pH 4.5; inconclusive = small, poorly fitted or top-dose-only inhibition, or a rising curve; inactive = flat fitted curve, though single readings scatter; no compound was filed as active;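 further: 0% = full activity with enzyme and -100% = basal without enzyme; dose as in the result columns while the protocol names 77 µM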
# miR-21 FLuc: miR-21 reporter, rising signal. HeLa miR-21 FLuc reporter, luciferase, 48 h. Potency, µM (titrated, usually from 38.3 µM), without a hit: top-dose reporter change, positive = more light. 340,000 tested, under 10 active. AID 2288; active = well fitted rising curve with a large enough effect; inconclusive = small, poorly fitted or top-dose-only effect; inactive = no such curve, though single readings can be large or run the other way;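 further: % of control where 0% means no effect; miR-21 action dims this reporter so a rising signal means less miR-21 action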
#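 Luminescence from a firefly luciferase reporter carrying a miR-21 binding site downstream, stably expressed under a CMV promoter in HeLa cells that make miR-21 endogenously, reports miRNA modulation after 48 h compound exposure up to approximately 40uM final.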
# Rango-impB inh: inhibitors of Rango-importin beta complex formation; Q14974; Rango CFP/YFP FRET sensor + importin beta, 45 min; Potency, µM (top dose mostly 92.2 µM), for inactives: at the top dose inhibition of complex formation; 340,000 compounds, 0.031% hits; AID 540263; active = rising FRET ratio curve, often small or poorly fitted; inconclusive = mostly compound fluorescence or quenching in the first reads; inactive = flat curves in all reads;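 further: potency means the concentration at half of the fitted maximal effect; 0% = DMSO wells and 100% = buffer wells lacking importin beta; nearly all actives have a fitted effect of over 15% in size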
# Target sequence (Q14974 whole entry, looked up): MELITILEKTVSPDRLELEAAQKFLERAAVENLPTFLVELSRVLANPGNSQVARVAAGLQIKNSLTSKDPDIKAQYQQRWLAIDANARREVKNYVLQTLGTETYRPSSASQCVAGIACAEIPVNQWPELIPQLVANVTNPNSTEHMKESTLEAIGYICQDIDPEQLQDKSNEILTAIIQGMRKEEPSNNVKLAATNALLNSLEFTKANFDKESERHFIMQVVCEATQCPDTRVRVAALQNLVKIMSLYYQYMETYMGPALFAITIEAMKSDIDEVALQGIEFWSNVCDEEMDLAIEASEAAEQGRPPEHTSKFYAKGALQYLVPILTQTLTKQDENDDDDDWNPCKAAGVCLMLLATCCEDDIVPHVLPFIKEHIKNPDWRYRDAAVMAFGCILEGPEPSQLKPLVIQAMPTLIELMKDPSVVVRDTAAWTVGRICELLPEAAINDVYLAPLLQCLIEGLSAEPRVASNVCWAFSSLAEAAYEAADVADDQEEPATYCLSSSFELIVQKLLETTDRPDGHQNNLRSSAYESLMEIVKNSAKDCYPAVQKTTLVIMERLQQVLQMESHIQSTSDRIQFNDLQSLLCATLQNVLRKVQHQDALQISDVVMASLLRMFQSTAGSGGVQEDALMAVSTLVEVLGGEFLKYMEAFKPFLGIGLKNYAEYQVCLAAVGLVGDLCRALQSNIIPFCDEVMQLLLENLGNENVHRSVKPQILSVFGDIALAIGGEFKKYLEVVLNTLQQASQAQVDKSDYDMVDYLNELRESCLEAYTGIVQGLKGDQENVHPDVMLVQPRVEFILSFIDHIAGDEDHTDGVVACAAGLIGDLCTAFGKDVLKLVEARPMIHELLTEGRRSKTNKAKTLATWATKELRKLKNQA
#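 FRET biosensor Rango (snurportin 1 IBB between N-terminal EYFP and C-terminal Cerulean), 50 nM in PBS/1 mM DTT/0.02% Tween-20/0.1% BSA, preincubated 5 min RT with compound; 0.125 microM importin beta added, 45 min RT, CFP/YFP FRET ratio read.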
# Rango release inh: inhibitors of RanGTP-induced Rango-importin beta complex dissociation | Potency, µM (highest dose often 46.1 µM), for inactives: at the highest dose activity change, negative = inhibition | 340,000 compounds, 0.071% hits | Biochemical FRET Rango-importin beta, RanGTP-induced dissociation; active means falling FRET ratio curve, often poorly fitted, with flat reads before Ran was added; inconclusive means other falling curves, or compound fluorescence or quenching; inactive means flat or rising ratio curve;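 further: potency means the concentration at half of the fitted maximal effect; % of control where 0% means no effect; nearly all actives have a fitted effect of over 45% in size; -100% = wells without RanGTP and RCC1; the record marks most hits as doubtful in a second field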
#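 Quantitative HTS using a FRET biosensor: 0.1 uM Rango, 0.25 uM importin beta, 0.6 uM Ran, 2 mM GTP, 0.2 uM RCC1 final, PBS with DTT, Tween-20 and BSA. Post-read taken 45 min after Ran addition.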
# Starred values were filed as active, the others as inactive; ? = inconclusive; . = not tested or not shown; [ ] = another dose, or the depositor's remark. Only part of the results is shown; the hit share may differ from the screen's.
Rango release inh	Rango-impB inh	miR-21 FLuc	Compound	GLA inh pH 4.5
-2%	-1.7%	-5%	Cc1ccc(-n2nnnc2SCC(=O)Nc2ccc3c(c2)COC3=O)cc1C	4
-11%	-2.6%	.	COc1ccc(C2C(=O)NN=C2C)cc1 (stereo not drawn)	.
1%	0.7%	9%	CCOC(=O)c1c(NC(=O)Cn2nnc3ccccc32)sc2c1CCC(C)C2 (stereo not drawn)	2
?	-1.6%	-1%	Cc1ccccc1C(=O)NCC(=O)Nc1ccccc1C(F)(F)F	6
-10%	5.1%	-58%	COc1cccc(C(=O)N/N=C/c2ccc(OC)c(COc3ccccc3C(N)=O)c2)c1	.
-12%	-4.1%	-42%	CC1CC1C(=O)NCCc1ccc(Cl)cc1 (stereo not drawn)	2
1%	-0.7%	15%	N#CC1=C(N)N2C(=C(C#N)C13CCCCC3)SC1CCCCC12O (stereo not drawn)	-7
-4%	-1.7%	-5%	O=C(O)C1CSC2c3ccccc3C(=O)N12 (stereo not drawn)	-3
-5%	1.2%	7%	COCCNC(=O)CSc1nc(-c2ccccc2)c(-c2ccccc2)o1	-15
-13%	0.9%	-1%	CCCCN(C)CCN1C(=O)C2C(C(=O)Nc3ccc(OC)cc3)C3C=CC2(O3)C1C(=O)NC1CCCCC1 (stereo not drawn)	.
-8%	4.3%	.	Cc1cccc(C)c1NC(=O)c1ccc(OCc2c(C)noc2C)cc1	.
?	?	-2%	CCOc1cc(C2C(C#N)=C(N)Oc3cc(N)ccc32)ccc1O (stereo not drawn)	.
38%	-0.6%	-9%	COc1cc2c(cc1NC(=O)c1cc(-c3ccncc3)nc3ccccc13)oc1ccccc12	-3
-11%	-2.0%	.	COc1ccc(S[C@@H](CCN2CC[C@H](O)CCC2=O)c2ccccc2)cc1	.
?	?	10%	Fc1cccc(NC(=S)NNc2c3ccccc3nc3ccccc23)c1	-2[21.1 µM]
7%	-3.9%	3%	Cn1c(=O)n(C)c2cc(/C=C3/NC(=O)N(Cc4ccccc4)C3=O)ccc21	0
-5%	-1.1%	-2%	COc1ccc(N(C(=O)CNC(=O)c2ccco2)C(C(=O)NC2CCCCC2)c2ccco2)cc1 (stereo not drawn)	2
-9%	0.2%	-1%	O=c1ccc(-c2ccc(S(=O)(=O)NCC3CCN(Cc4cccc(F)c4)CC3)s2)n[nH]1	.
-2%	0.5%	-4%	CNC(=O)C(C)c1ncc(C(F)(F)F)cc1Cl (stereo not drawn)	-4
7%	-5.6%	-19%	c1ccc(CSc2ccc(-c3ccccn3)nn2)nc1	-4
-8%	-0.3%	.	Cc1ccc(NC(=O)c2ccc(S(=O)(=O)N3CCC(C)CC3)cc2)nc1	.
4%	0.0%	-11%	Cc1ccc(S(=O)(=O)N2CCCC2)cc1[N+](=O)[O-]	-2
3%	-3.2%	26%	O=C(Cc1cccs1)Nc1nc(-c2ccc(F)c(F)c2)cs1	.
?	?	-15%	CCN(CC)S(=O)(=O)c1ccc2c3c(cccc13)C(=O)N2	5
-20%	?	21%	FC(F)(F)c1cccc(N2CCN(C(=S)NCC3CCCO3)CC2)c1 (stereo not drawn)	-8
-10%	0.0%	.	CCOc1ccc(NC(=O)c2cccc(NC(C)=O)c2)cc1S(=O)(=O)N1CCCC1	.
1%	3.4%	-1%	COc1ccc(S(=O)(=O)NC(CC(=O)NCc2ccco2)C(C)C)cc1 (stereo not drawn)	1
-11%	1.4%	3%	Cc1cc(=O)[nH]c(SCC(=O)N(CCC#N)c2ccccc2)c1C#N	0
12%	0.5%	0%	C=CCN1C(=O)c2ccc(C(=O)N(C)CC(=O)Nc3ccccc3Br)cc2C1=O	.
-11%	0.0%	7%	O=C(NCCc1c[nH]c2ccccc12)/C(=C\c1cccnc1)NC(=O)c1ccccc1F	0
1%	2.9%	-2%	CSc1ccc(CNCCCSc2ncccn2)cc1	.
3%	1.4%	-3%	O=C(C1CCC(=O)N1C1CCCCC1)N1CCN(c2ccc(F)cc2)CC1 (stereo not drawn)	4
-5%	-3.5%	-7%	N#CN(CC(N)=O)c1nc(N2CCCCC2)nc(N2CCCCC2)n1	3
0%	?	.	Cc1ccc(C(CNS(=O)(=O)c2ccc(F)cc2)N2CCN(C)CC2)cc1 (stereo not drawn)	.
9%	-4.7%	-6%	Cc1ccc(N(CC(=O)O)S(C)(=O)=O)cc1Cl	-4
-1%	0.0%	-13%	CCn1c(C)nc2cc(C(=O)NNC(=O)CCC3CCCC3)ccc21	5
16%	5.8%	.	CC(C)(C)N(Cc1ccccc1)C(=O)CN1C(=O)NC2(CCCCCC2)C1=O	.
10%	1.2%	-3%	Cc1nc(SCC(=O)Nc2ccc(F)cc2)c(C#N)c(C)c1CC(=O)c1ccc(Br)cc1	12
27%	-0.3%	7%	CCCn1c(N)c(N(CCOC)C(=O)c2ccccc2F)c(=O)[nH]c1=O	.
-10%	3.7%	-11%	NC(=O)C1CCN(CC(=O)c2c[nH]c3ccc(F)cc23)CC1	1
1%	?	-40%	CCOC(=O)C1CCCN(C(=O)CC(C)c2ccccc2)C1 (stereo not drawn)	2
-1%	-0.3%	.	Cc1ccc(C(=O)Nc2ccccc2N2CCCC2)cc1S(=O)(=O)N1CCOCC1	.
?	-0.9%	-9%	Cc1ccc(-c2n[nH]c(=O)c3ccccc23)cc1S(=O)(=O)Nc1ccc(F)cc1	4
-1%	7.7%	.	CC(C)N(Cc1ccccc1)C(=O)COC(=O)c1cc[n+]([O-])cc1	.
-1%	-3.5%	-65%	O=C(NCCc1cccs1)c1ccc(Cl)c(Cl)c1	3
1%	-0.2%	-14%	CCOC(=O)c1ccccc1NC(=O)c1ccc2nc[nH]c2c1	.
12%	0.0%	-59%	O=C(/C=C/c1ccccc1)NC(=O)c1ccccc1O	-5
17%	2.4%	1%	Cn1c(C(C#N)C(=O)Cc2cccc3ccccc23)nc2ccccc21 (stereo not drawn)	-1

# Entries of single compounds, looked up by structure:
# Cc1ccc(C(=O)Nc2ccccc2N2CCCC2)cc1S(=O)(=O)N1CCOCC1 as listed: Rango release inh = -1%; Rango-impB inh = -0.3%; miR-21 FLuc = .; GLA inh pH 4.5 = .
# CC(C)N(Cc1ccccc1)C(=O)COC(=O)c1cc[n+]([O-])cc1 as listed: Rango release inh = -1%; Rango-impB inh = 7.7%; miR-21 FLuc = .; GLA inh pH 4.5 = .
# CCOC(=O)c1ccccc1NC(=O)c1ccc2nc[nH]c2c1 as listed: Rango release inh = 1%; Rango-impB inh = -0.2%; miR-21 FLuc = -14%; GLA inh pH 4.5 = .

# Next section.
Rango release inh	Rango-impB inh	miR-21 FLuc	Compound	GLA inh pH 4.5
-5%	5.8%	2%	CC(C)NC(=O)c1sc(=S)n2c1[nH]c(=O)c1ccc(C(=O)NCCc3ccc(Cl)cc3)cc12	.
6%	-1.0%	-19%	Cc1cc(NC(=O)c2ccco2)no1	2
-9%	-2.9%	1%	COc1cccc(/C=N/Nc2ncnc3scc(-c4ccccc4)c23)c1OC	-3
-12%	4.0%	4%	COc1ccc(NS(=O)(=O)c2cccc(NC(=O)c3cnccn3)c2)cc1Br	6
10%	-2.9%	7%	COc1ccc(CCNC(=O)c2cc(=O)n(C)c(=O)n2C)cc1OC	0
15%	5.1%	0%	COC(=O)[C@H](CCSC)NC(=O)N1CCN(c2cccc(C(F)(F)F)c2)CC1	10
-9%	-1.5%	-52%	CN(C)S(=O)(=O)c1cccc(-c2nnc(-c3ccccc3)o2)c1	-2
-4%	-4.5%	.	CN(C(=O)CSc1cc(Cl)ccc1Cl)C1CCS(=O)(=O)C1 (stereo not drawn)	.
-13%	0.6%	-5%	CCN(CC)CCCNC(=O)c1nn(-c2cccc(OC)c2)c(=O)c2ccccc12	-6
0%	0.7%	19%	CCN(CC)S(=O)(=O)c1cc(NC(=O)C(C)OC(=O)c2[nH]c(C)c(C(C)=O)c2C)ccc1C (stereo not drawn)	20
-6%	5.9%	7%	Cc1ccc(SCC(=O)N2c3ccccc3Sc3ccccc32)cc1	4
17%	0.4%	3%	N#CNC(=Nc1cccc(Cl)c1)Oc1ccccc1	-1
-7%	-6.8%	-3%	Cc1ccc(OCC(=O)NN2C(=O)c3ccccc3C2=O)c(C)c1	9
10%	0.0%	-10%	CC(=O)C(C)Oc1ccc(Cc2ncc(C(F)(F)F)cc2Cl)cc1 (stereo not drawn)	-5
1%	0.0%	0%	O=C(O)CSCC(=O)Nc1ccccn1	-2
-4%	0.3%	-64%	O=S(=O)(Cc1cc(-c2ccccc2)no1)c1ccccc1	-5
9%	-5.3%	-7%	COc1ccc(C(NC(=O)/C=C/c2ccco2)c2ccc(OC)cc2)cc1	-7
8%	3.9%	-6%	COc1cccc(-c2noc(Cn3nc(C)c([N+](=O)[O-])c3C)n2)c1	-9
1%	-4.0%	-52%	CCn1c(-c2cccnc2Cl)nc2cc(Cl)c(Cl)cc21	-4
-3%	0.3%	0%	Cc1ccc(NC(=O)CN(C)C(=O)/C=C/c2cccc(F)c2)cc1	2
.	.	-15%	O=c1[nH]c2c(cc1CNCCN1CCOCC1)c(-c1cccc(F)c1)nn2-c1ccccc1	2
0%	0.1%	-16%	Cc1ccccc1SCC(=O)Nc1ccc(N2CCOCC2)cc1	-1
1%	-0.6%	-8%	COc1ccc(CCNC(=O)CCN2C(=O)COc3ccccc32)cc1OC	4
?	?	0%	Cc1ccc(NC(=O)CN2C(=O)S/C(=C\c3cccn3-c3cccc(C(=O)O)c3)C2=O)cc1C	-3
11%	-1.5%	?	O=C(COc1ccc(C(=O)c2ccc(F)cc2)cc1)NCc1ccc(F)cc1	-11
10%	-1.7%	.	CN(Cc1ccccc1)C(=O)COC(=O)C12CC3CC(CC(Br)(C3)C1)C2	.
-4%	-1.0%	.	Cc1ccccc1NC(=O)Cc1nc(COC(=O)CCC(=O)c2ccccc2)cs1	.
19%	0.2%	-3%	COC(=O)c1ccc(/C=N\N2CCN(Cc3ccc(C)cc3)CC2)cc1	-6
3%	0.6%	.	O=C(Cn1cc(COc2ccccc2[N+](=O)[O-])nn1)c1ccc(O)cc1	.
2%	-1.0%	-2%	CC(C)(C)NC(=O)C(c1ccc(Cl)cc1)N(CCO)C(=O)c1snc(C(N)=O)c1N (stereo not drawn)	.
-19%	2.4%	-1%	C=C(C)CNC(=S)N/N=C/c1ccc(NC(C)=O)cc1	7
2%	2.3%	-1%	Cc1nonc1NC(=O)CSc1nc2cc(Cl)ccc2c2c1CCCC2	-10
3%	1.0%	.	O=C(CN1CCN(S(=O)(=O)c2ccc(F)c(Cl)c2)CC1)N1CCc2ccccc21	.
8%	4.7%	-17%	COc1ccc(C(=O)COC(=O)CN2CC(=O)Oc3ccccc32)cc1Br	3
8%	0.9%	-20%	O=C(Nc1ccc(CN2CCOCC2)cc1)c1ccc2ccccc2c1	.
1%	2.5%	0%	COc1cccc(OC)c1C(=O)NNC(=O)c1ccccc1-n1cccc1	7
-17%	0.6%	-5%	COc1cc(NS(=O)(=O)c2ccc(NC(=S)NC(=O)COc3ccccc3OC)cc2)nc(OC)n1	-2
5%	-0.2%	.	OCCCn1c(C2CCCN2c2nc(-c3ccc(F)cc3)cs2)nc2cc(C(F)(F)F)ccc21 (stereo not drawn)	.
-10%	-1.4%	17%	COc1ccc(Cl)cc1N/C(N)=N/c1nc(C)cc(C)n1	-26
-3%	-0.5%	.	O=C(Nc1ccccc1N1CCOCC1)c1cc(Cl)c2c(c1)OCO2	.
-13%	1.4%	-6%	Cc1c(Cl)cccc1NC(=S)NCC(C)C	-3
1%	0.3%	-20%	Cc1nc2ccc(NC(=O)NC(=O)c3c(Cl)cccc3Cl)cc2o1	5
-3%	-5.3%	-5%	CCN(CC)S(=O)(=O)c1ccc2[nH]cc(C(=O)NCCc3ccc(OC)c(OC)c3)c(=O)c2c1	-7
2%	2.8%	0%	Cc1cc(C(=O)N2CCCC(C(=O)c3cc(F)ccc3F)C2)c(C)o1 (stereo not drawn)	-1
